Screening results: PubChem BioAssay, National Center for Advancing Translational Sciences (NCATS)
miR-21 FLuc = miR-21 reporter, rising signal. Potency, µM (top dose mostly 38.3 µM), for inactives: at the highest dose reporter change, positive = more light. AID 2288. 340,000 tested, under 10 active. HeLa miR-21 FLuc reporter, luciferase, 48 h; active = well fitted rising curve with a large enough effect; inconclusive = small, poorly fitted or top-dose-only effect; inactive = no such curve, though single readings can be large or run the other way;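 note: % of control where 0% means no effect; miR-21 action dims this reporter so a rising signal means less miR-21 action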
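Luminescence from a firefly luciferase reporter carrying a miR-21 binding site downstream, stably expressed under a CMV promoter in HeLa cells that make miR-21 endogenously, reports miRNA modulation after 48 h compound exposure up to approximately 40uM final.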
The depositor's hits bear a star; u = inconclusive. Not all compounds are listed; count on the stated rates, not on these rows.

miR-21 FLuc	Structure
-4%	COC(=O)c1ccc2c(c1)N(CC(=O)Nc1ccc(C)cc1Cl)C(=O)c1ccccc1S2
0%	COc1ccc(NC(=O)CCCc2nnc3n(CCC(C)C)c(=O)c4sccc4n23)c(OC)c1
6%	CCOc1ccc(S(=O)(=O)Nc2ccc3c(c2)CCCN3S(=O)(=O)c2ccc(C)cc2)cc1
5%	CCOc1ccc(N(C(=O)c2ccc(Cl)cc2)S(=O)(=O)c2ccc3c(c2)n(C)c(=O)n3C)cc1
1%	COc1ccc(CNC(=O)C2CCN(S(=O)(=O)c3ccc(F)cc3)CC2)cc1
-12%	CC(=O)c1cccc(NC(=O)[C@H]2O[C@@H]3OC(C)(C)O[C@@H]3[C@H]3OC(C)(C)O[C@H]32)c1
-10%	O=C(Nc1ccc(Cl)cc1)N1CCC(CN2CCCC2)CC1
11%	Cc1c2cnn(-c3ccccc3)c(=O)c2c(C)n1CCCC(=O)Nc1ccc(F)cc1F
-7%	Cc1ccc(NC(=O)C(=O)NCC(c2cccnc2)N2CCN(C)CC2)cc1F (centres undefined)
18%	COc1ccc(Cn2ccc3nc(C)c(C(=O)NCc4ccc(C)cc4)cc3c2=O)cc1
-6%	Cc1ccc(CNC(=O)c2cnc3c(-c4ccc(F)cc4)c(C)nn3c2C)o1
-12%	COc1ccc(S(=O)(=O)N2CCN(Cc3ccc4c(c3)OCO4)CC2)cc1C
-21%	COc1ccc(Cl)cc1NC(=O)[C@H]1O[C@@H]2OC(C)(C)O[C@@H]2[C@H]2OC(C)(C)O[C@H]21
1%	O=C(NC1CC(=O)N(c2ccccc2)C1)C1CCCC1 (centres undefined)
-17%	COc1cc(NS(=O)(=O)c2ccc(NC(=O)c3ccc(Cl)cc3Cl)cc2)nc(OC)n1
-15%	COc1ccc(-c2cc3c(=O)n(CC(=O)Nc4ccccc4C(F)(F)F)ccn3n2)cc1OC
-3%	COc1ccc(-n2c(-c3ccc(F)cc3)cn3c4c(=O)n(C)c(=O)n(C)c4nc23)cc1
-1%	COc1ccc(/C=C\c2onc(C)c2S(=O)(=O)N2CCC(C(=O)Nc3ccc(C)cc3C)CC2)cc1
-46%	COc1ccc(-n2ncc3c2ncn2nc(Cc4ccccc4)nc32)cc1
0%	CCOc1ccc(NC(=O)CS(=O)(=O)Cc2nc(-c3ccc(C)cc3)oc2C)cc1
-1%	CCOC(=O)c1cc(-c2ccc(OC)c(S(=O)(=O)N3CCN(c4ccccc4)CC3)c2)on1
0%	O=C(NC1CC(=O)N(c2ccc(F)cc2)C1)C1CC1 (centres undefined)
6%	O=C(NCCOCCn1c(=O)oc2ccccc21)Nc1ccc(F)cc1F
0%	COc1ccccc1N1CCN(c2ncc3c(n2)CCN(Cc2ccccc2C)C3)CC1
12%	Cn1c(C(=O)NCCc2ccccc2)cc2cc(S(=O)(=O)N3CCCCC3)ccc21
-2%	O=C(NCCS(=O)(=O)N1CCN(c2ccccc2)CC1)C(c1ccccc1)c1ccccc1
-5%	CC1Cc2ccccc2N1S(=O)(=O)c1nnc(NC(=O)c2cccc(F)c2)s1 (centres undefined)
u	CC1CCN(c2ccc(-c3nc(-c4ccccc4)no3)cc2[N+](=O)[O-])CC1
-4%	CCOc1ccc(CNC(=O)c2cnc3c(C)cccn3c2=O)cc1
1%	O=C(Nc1c(C(=O)N2CCN(c3ccccc3F)CC2)oc2ccccc12)c1ccccc1F
-14%	Cc1ccc2c(c1)-c1c(cnn1CC(=O)Nc1ccccc1C#N)CO2
22%	CC1=Nc2cc(C(=O)NCCc3ccccc3)ccc2Sc2c(C)ccc(C)c21
-9%	C=Cc1ccc(Cn2c(=O)cc(C)c3c(C)nn(C)c32)cc1
5%	CCN1CCC(N(Cc2ccc(F)cc2)C(=O)Nc2cc(Cl)ccc2C(=O)OC)CC1
13%	Cc1nc2c(-c3ccccc3)c(C)nn2c(C)c1CCC(=O)N1CCN(c2ccc(F)cc2)CC1
-1%	Cc1ccc(C)c(Cn2c(=O)n(Cc3ccccc3)c(=O)c3c(C)c(C)sc32)c1
u	Cc1cccc(N2CCN(C(=O)c3ccc4c(c3)CCN4S(=O)(=O)c3ccccc3)CC2)c1C
u	CCOc1ccc(N(C)C(CNS(=O)(=O)c2ccccc2)c2ccccc2)cc1 (centres undefined)
0%	Cc1ccccc1NC(=O)c1cc2c(-c3ccccc3)nn(-c3ccccc3)c2s1
u	Cc1cccc(OCCCCn2c(C3CC(=O)N(c4ccc(C)cc4C)C3)nc3ccccc32)c1 (centres undefined)
-7%	COc1cc(-c2noc(CSc3nc(-c4ccc(F)cc4)cc(=O)[nH]3)n2)cc(OC)c1OC
-10%	COc1ccc(-c2c(C)c3ccc(O)c(CN4CCCC4)c3oc2=O)cc1OC
19%	COc1cccc(NC(=O)c2cc3c(-c4ccc(Cl)cc4)nn(C)c3s2)c1
14%	O=C(NCCCCc1ccccc1)c1nn(-c2ccccc2F)nc1CO
14%	CC(=O)Nc1ccc(Nc2ccc3cc(S(=O)(=O)N4CCCCC4)ccc3n2)cc1
2%	COc1ccc(NC(=O)CSc2nncn3c2cc2occc23)c(OC)c1
14%	CCc1ccccc1Nc1nn2c(=O)c3ccc(C(=O)NCCCOC(C)C)cc3nc2s1
14%	COc1cc2ccccc2cc1C(=O)N1CCN(c2nc3c(C)cc(C)cc3s2)CC1
-5%	Cc1ccc(C(=O)Oc2cc(-c3ccc4c(c3)OCO4)cc(=O)c3c(C)oc(C)c23)cc1
-33%	CCC1CN(C(=O)N2CCC(C(=O)N(C)Cc3ccccc3)CC2)c2ccccc2O1 (centres undefined)

5 records drawn at random from those above, as already listed:
miR-21 FLuc	Structure
u	Cc1cccc(OCCCCn2c(C3CC(=O)N(c4ccc(C)cc4C)C3)nc3ccccc32)c1 (centres undefined)
u	Cc1cccc(N2CCN(C(=O)c3ccc4c(c3)CCN4S(=O)(=O)c3ccccc3)CC2)c1C
14%	O=C(NCCCCc1ccccc1)c1nn(-c2ccccc2F)nc1CO
-4%	CCOc1ccc(CNC(=O)c2cnc3c(C)cccn3c2=O)cc1
2%	COc1ccc(NC(=O)CSc2nncn3c2cc2occc23)c(OC)c1

(cont.)
miR-21 FLuc	Structure
-44%	Cc1ccc(CN(C(=O)COc2ccc(Br)cc2)c2ccccn2)o1
-7%	CCc1ccc(CNC(=O)c2cnc3sc(N4CCOCC4)nn3c2=O)cc1
2%	COc1ccc(CNCCSc2nnnn2-c2ccccc2)cc1
1%	CC(C)NC(=O)C1CCCN(c2ncnc3onc(-c4ccc(F)cc4)c23)C1 (centres undefined)
25%	COc1ccc(S(=O)(=O)c2c(Nc3cccc(Cl)c3)sc(C(=O)c3ccccc3)c2N)cc1
-1%	CN(C)CCN(C(=O)c1ccco1)c1nc2c(F)cc(F)cc2s1
5%	Cc1cccc(CNC(=O)c2cccc(NC(=O)N3CCSc4ncccc43)c2)c1
-4%	Cc1cccc(NC(=O)c2c(NC(=O)c3ccccc3)sc3c2CCCC3)c1
4%	CCC(=O)N1CCc2cc(Br)cc(S(=O)(=O)N3CCN(c4ccccc4)CC3)c21
-2%	Cc1ccc2nc(Cl)c3cc(C(=O)NC4CCCCC4)sc3c2c1
25%	Cc1cccc(N(CC(=O)NC(C)c2ccccc2)S(=O)(=O)c2ccccc2)c1C (centres undefined)
-11%	COc1ccc(C(=O)CCC(=O)Nc2ccccc2C)cc1
-11%	Cc1ccc(NC(=O)CSc2nc3ccc(NC(=O)c4cccc(Cl)c4)cc3s2)c(C)c1
-1%	COc1ccc(CCNC(=O)c2cc(=O)c3cc(C)c(C)cc3o2)cc1OC
15%	Cc1cccc(N2CCN(C(=O)CS(=O)(=O)c3cccc4nsnc34)CC2)c1C
-2%	O=C(NCCc1ccc(Cl)cc1)c1c2c(nc3ccccc13)C(=O)N(C1CCCCC1)C2
-13%	CC(=O)c1ccc(NC(=O)c2cc(-c3ccc(Cl)c(Cl)c3)on2)cc1
14%	COc1ccc(NS(=O)(=O)c2ccc(NC(=O)N3CCCC3)cc2)cc1
0%	Cc1cc(F)ccc1NC(=O)CCS(=O)(=O)c1cccc2nsnc12
0%	CCOC(=O)Cn1nc(N2CCN(c3ccc(F)cc3)CC2)ccc1=O
1%	COc1cc(NC(=O)NCCc2c(C)nn(C)c2C)cc(OC)c1OC
19%	CC1CN(C(=O)N2CCC(C(=O)NC3CCCCCC3)CC2)c2ccccc2O1 (centres undefined)
-12%	CCOc1ccc(C(=O)NCCc2sc3nc(-c4ccc(Cl)cc4)nn3c2C)cc1OCC
11%	Cc1ccc(Cn2ccnc2SCC(=O)NCc2ccc(F)cc2)cc1
-5%	Cc1ccc(NC(=O)c2ccc(C)c(S(=O)(=O)N3CCCCCC3)c2)cc1

Entries listed so far that contain two or more sulfur atoms:
miR-21 FLuc	Structure
6%	CCOc1ccc(S(=O)(=O)Nc2ccc3c(c2)CCCN3S(=O)(=O)c2ccc(C)cc2)cc1
-5%	CC1Cc2ccccc2N1S(=O)(=O)c1nnc(NC(=O)c2cccc(F)c2)s1 (centres undefined)
25%	COc1ccc(S(=O)(=O)c2c(Nc3cccc(Cl)c3)sc(C(=O)c3ccccc3)c2N)cc1
-11%	Cc1ccc(NC(=O)CSc2nc3ccc(NC(=O)c4cccc(Cl)c4)cc3s2)c(C)c1
15%	Cc1cccc(N2CCN(C(=O)CS(=O)(=O)c3cccc4nsnc34)CC2)c1C
0%	Cc1cc(F)ccc1NC(=O)CCS(=O)(=O)c1cccc2nsnc12

Reformatted tab-delimited: part of the list above
structure	miR-21 FLuc
CCOc1ccc(C(=O)NCCc2sc3nc(-c4ccc(Cl)cc4)nn3c2C)cc1OCC	-12%
Cc1ccc(Cn2ccnc2SCC(=O)NCc2ccc(F)cc2)cc1	11%

The results go on:
miR-21 FLuc	Structure
-7%	Oc1c(C(c2ccc(Cl)cc2)N2CCC3(CC2)OCCO3)sc2nc(-c3ccco3)nn12 (centres undefined)
17%	Oc1ccc(/C=C/c2nc(-c3ccccc3O)n(-c3ccccc3)n2)c(O)c1
-48%	CC1CCCCN1C(=O)CSc1nnc(-c2cccc(Cl)c2)o1 (centres undefined)
22%	CCc1ccccc1S(=O)(=O)Cc1ccc(C(=O)NCc2ccc(Cl)cc2)o1
1%	CCOC(=O)c1sc(NC(=O)/C=C/c2ccc(C(C)C)cc2)c(C(=O)OCC)c1C
19%	COc1ccccc1NC(=O)CN(c1ccc(C(C)C)cc1)S(=O)(=O)c1c(C)noc1C
-5%	Cc1ccc(Cn2c(CCNC(=O)C(C)C)nc3ccccc32)cc1
-11%	N#Cc1ccccc1OCC(=O)N1CCN(c2ccccc2)CC1
-4%	CCCCNC(=O)CCCN1C(=O)CCn2nc(-c3cccn3C)cc21
-6%	CC(=O)Nc1c(C)nn(-c2ccccc2)c1N1CCC(C(=O)Nc2ccc(F)cc2Cl)CC1
-5%	COc1ccccc1OCC(=O)Nc1c(C(=O)c2ccc(F)cc2)oc2ccccc12
-2%	Cc1cccc(C)c1NC(=O)Cn1nnc(S(=O)(=O)c2ccccc2)c1N
12%	CCC(=O)N1CCc2cc(Br)cc(S(=O)(=O)N3CCCC(C(=O)Nc4ccc(CC)cc4)C3)c21 (centres undefined)
18%	O=C(COc1ccc(Cl)cc1)NCCc1csc(-c2cccc(F)c2)n1
-1%	O=C(COc1ccccc1)Nc1nnc(SCc2cc(=O)n3cc(Cl)ccc3n2)s1
-11%	CCCN1C(=O)c2[nH]nc(-c3cccc(OC)c3)c2C1c1ccccn1 (centres undefined)
7%	Cc1ccc(CN2CCN(C3CCN(C(=O)Nc4ccc(C)cc4Cl)CC3)C(=O)C2=O)cc1
14%	Cc1cccc(NC(=O)CSc2nc3n[nH]c(C)c3c(=N)n2-c2cccc(Cl)c2)c1
4%	Cc1ccc(S(=O)(=O)N2CCC(C(=O)Nc3ccc(C)c(Cl)c3)CC2)cc1
-15%	CCS(=O)(=O)N1CC(=O)N(c2ccc(Cl)cc2)C(C)(C(=O)NC2CCCCCC2)C1 (centres undefined)
20%	CCN(CC)CCNC(=O)Cn1ncc2c3ccccc3n(Cc3ccccc3C)c2c1=O
2%	CCc1ccc(S(=O)(=O)c2c[nH]c3cc(OC)c(OC)cc3c2=O)cc1
-10%	Cn1nc(-c2ccccc2F)c2cc(C(=O)NCc3ccc(Cl)cc3)sc21
4%	COc1ccc(CNc2n[nH]c(-c3ccco3)n2)cc1OC
-3%	CCOCCCn1c(=N)c(C(=O)NC(C)c2ccccc2)cc2c(=O)n3cc(C)ccc3nc21 (centres undefined)
-4%	O=C(Cn1c(=O)n(Cc2ccc(F)cc2)c(=O)c2sc3ccccc3c21)NCc1ccccc1Cl
-1%	Cc1cccc(NC(=O)CSc2ncc3c(n2)-c2ccccc2N(Cc2ccc(F)cc2)S3(=O)=O)c1C
-8%	O=C(CSc1nc2c([nH]c3ccccc32)c(=O)n1-c1ccccc1)Nc1ccccc1C(F)(F)F
-8%	Cc1cccc(CCNC(=O)CCc2c(C)nc3c(c(C)nn3-c3ccccc3)c2C)c1
-25%	COc1ccc(NC(=O)c2csc3c2CCCCC3)cc1
u	COc1ccc(-c2noc(CC(=O)Nc3ccc(F)cc3F)n2)cc1
16%	O=C(CCNS(=O)(=O)c1ccccc1)N1CCN(C(c2ccccc2)c2ccccc2)CC1
1%	Cc1ccc2[nH]c3c(=O)n(CC(=O)N4CCCCC4)ncc3c2c1
6%	O=C(NCCC1=CCCCC1)c1ccc2c(c1)N(Cc1ccccc1F)C(=O)c1ccccc1S2(=O)=O
6%	CCOC(=O)N1CCN(C(=O)c2c(C)nn(-c3cccc(C)c3)c2-n2cccc2)CC1
-6%	Cc1oc(-c2ccc(C(=O)NCc3ccccc3)cc2)nc1CS(=O)(=O)c1ccccc1
-1%	CCN(CC)CCNC(=O)c1[nH]c2ccccc2c1Sc1ccc(Cl)cc1
-1%	Cc1ccc(NC(=O)CCc2c(C)nc3ncnn3c2C)cc1Cl
-1%	O=C(CSc1nc(=O)[nH]c2c1CCCC2)Nc1ccccc1C(F)(F)F
